Source: PubChem BioAssay
Ecoli growth: inhibitors of Escherichia coli growth; OD600, 23 h; hits give low values; OD600 absorbance (no concentration beside the values); 330,000 compounds, 0.21% hits;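 active = OD600 absorbance below the run mean of sample wells minus 3.6 SD, in any replicate, cut at about 0.56 in these data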;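 also: stock transfer was 300 nL into about 60 µL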
FGF22 binding: binders of recombinant human FGF22 by thermal shift; Q9HCT0; SYPRO orange fluorescence; percent of sucrose octasulfate shift, DMSO zero; calls only at 9.99 µM; 340,000 compounds, 1.5% hits; AID 651658;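 active = melting point raised past a set limit in the mean and every replicate; inconclusive = no clear call; three in four hits are not shown here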
HNF4A DNA FP: change in binding of human HNF4 alpha to DNA | P41235 | HNF4a-FITC DNA binding, fluorescence polarization, 1 h | activity change, % at 10 µM | 360,000 compounds, 0.3% hits | AID 1224865; in the data active = activity change above about 30%, passing the limit was not always enough;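 also: controls were the assay level and a saturating level of protein; the project sought stronger binding though the title names inhibitors; some compounds called inactive have numbers as strong as hits; positive values seem to mean higher polarization but the record does not say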
Target sequence (P41235 whole entry, looked up): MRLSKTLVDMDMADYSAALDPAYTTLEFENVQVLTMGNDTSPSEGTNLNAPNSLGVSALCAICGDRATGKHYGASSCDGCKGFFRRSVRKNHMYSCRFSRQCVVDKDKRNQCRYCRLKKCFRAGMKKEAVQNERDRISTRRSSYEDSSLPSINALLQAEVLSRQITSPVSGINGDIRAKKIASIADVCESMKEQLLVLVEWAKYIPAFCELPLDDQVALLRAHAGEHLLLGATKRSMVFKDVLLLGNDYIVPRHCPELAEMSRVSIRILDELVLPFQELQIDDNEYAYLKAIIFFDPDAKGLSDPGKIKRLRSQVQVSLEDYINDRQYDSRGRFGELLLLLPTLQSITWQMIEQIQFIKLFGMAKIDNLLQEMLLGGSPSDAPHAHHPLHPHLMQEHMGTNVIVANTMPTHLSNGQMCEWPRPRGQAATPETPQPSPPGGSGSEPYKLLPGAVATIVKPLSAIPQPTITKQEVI
ALR inh: human ALR oxidase inhibition via reduced H2O2; P55789; purified ALR, DTT oxidation, H2O2 HRP-luminol luminescence; inhibition, % (no concentration beside the values); 290,000 compounds, 3.8% hits; AID 485317;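 active = mean and each replicate at 75% or more; inconclusive = only one of the two met; inactive = neither met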;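 also: stock transfer was 7.5 nL into about 7.5 µL; 0% = neutral wells and 100% = wells with inactivated enzyme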
rRNA inh HTS: inhibits bacterial ribosomal RNA function over humanized ribosomes; GFP signal change (wild-type ribosome), % (test concentration not listed); E. coli WT GFP vs humanized-ribosome RFP mutants, fluorescence, 24 h; hits give low values; DMSO median 0, no signal -100; 350,000 compounds, 1.6% hits; AID 720706;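 active = significant combined selectivity score with lowered wild-type GFP, culture density cut under 30%, mutant RFP and density less affected; inactive = any of these conditions unmet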; also: one replicate is shown; some compounds called inactive have numbers as strong as hits
AF4-AF9 inh: blocks AF4 peptide binding to human AF9; 350,000 compounds, 0.47% hits; AlphaScreen, biotin-AF4 peptide binding to FLAG-AF9; AID 651704; P42568; inhibition, % at 10 µM;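 active = every replicate reaching a set inhibition limit, whatever the replicate mean, cut at about 25% in these data; inconclusive = mean inhibition reaches that limit but some replicates miss it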;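 also: 0% = plate neutral control median and 100% = total signal loss; the record names both 10 and 1 µM as test concentration; the first replicate is given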
Target sequence (P42568 whole entry, looked up): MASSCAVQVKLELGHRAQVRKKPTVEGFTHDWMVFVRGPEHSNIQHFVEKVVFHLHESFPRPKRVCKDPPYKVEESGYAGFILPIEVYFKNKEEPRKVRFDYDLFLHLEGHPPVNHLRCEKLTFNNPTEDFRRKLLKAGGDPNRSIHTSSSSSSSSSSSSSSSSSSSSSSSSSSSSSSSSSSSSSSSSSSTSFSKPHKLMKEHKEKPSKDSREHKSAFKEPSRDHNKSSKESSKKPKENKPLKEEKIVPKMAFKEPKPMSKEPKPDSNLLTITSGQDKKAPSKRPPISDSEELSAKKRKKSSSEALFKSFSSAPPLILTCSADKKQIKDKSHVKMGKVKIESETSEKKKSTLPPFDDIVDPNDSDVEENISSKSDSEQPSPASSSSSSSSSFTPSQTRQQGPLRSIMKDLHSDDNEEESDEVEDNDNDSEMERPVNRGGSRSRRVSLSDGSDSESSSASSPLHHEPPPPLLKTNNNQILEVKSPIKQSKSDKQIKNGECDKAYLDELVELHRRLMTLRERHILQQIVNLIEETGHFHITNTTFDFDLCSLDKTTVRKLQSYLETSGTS
Vif A3G: inhibitors of Vif binding to APOBEC3G peptide, primary screen, biochemical, TR-FRET, GST-Vif 1-94, biotin-A3G peptide, dose response retest (AID 1117319); inhibition, %, or IC50 in µM where a hit was titrated; TR-FRET GST-Vif / biotin-A3G peptide binding; higher % means a stronger effect; test concentration not given here; strong numbers were not always called active; 260,000 compounds, 0.57% hits;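 active = above the screen mean plus three standard deviations and confirmed in dose response; inconclusive = results disagree or hit not tested in dose response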;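 also: Vif residues 1-94 fused to GST binding biotinylated APOBEC3G peptide 110-148; 0% = full assay without inhibitor and 100% = GST in place of GST-Vif; retest series ran down from 100 µM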
rRNA inh HTS OD600: recorded beside rRNA inh HTS, whose call it bears; OD600 change, %; measured here: OD600 growth;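 optical density of the mix in the first replicate; 0 = DMSO median and -100 = no signal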
rRNA inh HTS RFP: second read-out of rRNA inh HTS, no call of its own (marks repeat the call); RFP signal change, %; measured here: RFP humanized mutant strains;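 first replicate; 0 = DMSO median and -100 = no signal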
* marks the source's active call; other numbers are inactive results; i = inactive; u = inconclusive; x = not tested or not shown; & = joins results of further samples. Some of the compounds tested (hit frequency here may not be typical).

SMILES	Ecoli growth	FGF22 binding	HNF4A DNA FP	ALR inh	rRNA inh HTS	rRNA inh HTS OD600	rRNA inh HTS RFP	AF4-AF9 inh	Vif A3G
Cc1ccc(C)c(N2CCN(C(=O)c3cc4c(C)nc5ccccc5c4o3)CC2)c1	0.718	i	2.8	-0.7	-10.0	-11.1	-0.4	0.2	u
CCOc1ccccc1N1CCN(C(=O)NC(C)c2ccc(F)c(F)c2)CC1 (stereo not drawn)	0.663	i	-1.5	13.0	-3.5	-10.7	1.4	-0.7	-1.0%
O=C(Nc1ccc2oc(-c3ccncc3)nc2c1)c1ccccc1F	0.728	x	0.8	-9.4	x	x	x	x	-68.2%
CC(C)CC#Cc1cnc2c(c1)C(=O)N([C@H](C)CO)C[C@H](C)[C@H](CN(C)C(=O)Nc1cccc(F)c1)O2	x	i	x	x	3.1	-9.2	5.7	2.0	x
Cc1ccc(S(=O)(=O)N(CC(=O)Nc2ccccc2C(=O)O)c2ccc(Cl)cc2)cc1	0.678	x	-1.6	-1.4	-42.7	-68.5	-9.3	-0.5	-2.5%
CCCc1cnc(N2CCN(S(=O)(=O)c3cccs3)CC2)nc1	0.662	i	-5.3	0.0	10.5	7.8	3.9	-7.9	x
O=c1oc(-c2ccccc2Cl)nc2ccsc12	0.666	x	1.4	22.6	x	x	x	x	u
COc1cc(C(=O)N(Cc2ccc(N(C)C)cc2)C2CCS(=O)(=O)C2)cc(OC)c1OC (stereo not drawn)	0.759	x	-1.3	56.5	x	x	x	x	9.1%
CC(=O)NC(c1cc(Cl)c2cccnc2c1O)C(C)C (stereo not drawn)	0.668	i	1.1	u	-21.7	-19.8	-15.9	11.0	x
O=C(NCc1ccccc1)C(c1ccco1)N(C(=O)c1csnn1)c1ccccc1 (stereo not drawn)	0.592	x	-1.9	-10.8	x	x	x	1.4	-6.0%
CCc1c(Nc2ccccc2Cl)nc(N)[nH]c1=O	0.475*	x	5.0	x	-17.3	11.1	36.2	-6.2	-1.2%
C[C@H](CO)N1C[C@H](C)[C@H](CN(C)C(=O)Cc2cccnc2)Oc2ncc(C3=CCCCC3)cc2C1=O	x	i	x	x	-2.8	2.4	-1.8	3.9	x
C=CCN(C(=O)c1csnn1)C(C(=O)NCc1ccc(F)cc1)c1ccccc1 (stereo not drawn)	0.647	i	2.4	-1.7	0.1	5.0	-0.4	-3.7	x
CC(O)CNc1ncnc2nc[nH]c12 (stereo not drawn)	0.708	x	2.1	x	x	x	x	x	3.6%
COc1ccc(S(=O)(=O)N(C)c2ccc(C(=O)N3CCN(c4ccccc4)CC3)cc2)cc1OC	0.725	i	1.3	4.7	-18.8	-24.9	-3.9	2.3	-6.0%
Cc1cn(CC(=O)c2ccccc2)c2ccccc12	0.635	i	-2.9	2.2	-1.6	-1.1	-3.0	-1.1	x
CCS(=O)(=O)N1Cc2cc(C(=O)NCC3CC3)nc(-c3cccc(-c4cccnc4)c3)c2[C@@H]1CCO	x	i	-4.8	x	-14.7	-11.5	-1.2	-4.3	x
Nc1nc(NC(=O)c2ccccc2Cl)nn1-c1ccccc1	0.685	x	0.9	-1.8	11.1	12.4	-1.2	-0.8	18.9%
CCN(CC)C(=O)c1sc2nc(Cc3ccccc3)[nH]c(=O)c2c1C	0.692	i	7.6	-0.7	19.0	6.6	1.4	-1.5	x
O=C(CN1CCN(S(=O)(=O)c2ccccc2)CC1)Nc1ccnn1C1CCCC1	0.694	i	-2.6	x	5.7	10.1	1.5	1.1	x
CC(C)=C1SC(N2CCN(Cc3ccccc3)CC2)=NC1=O	0.693	x	-1.9	3.5	x	x	x	x	24.3%
C=CCNC(=O)c1ccc(-c2nc3ccccc3nc2-c2ccccc2)cc1	0.712	i	-0.2	-26.3	-5.0	-11.6	5.0	10.1	x
CC(=O)OC1CC[C@@]2(C)C(CCC3C2CC(=O)[C@@]2(C)C3CC3CC(C)=CC(=O)C32)C1 (stereo partly drawn)	0.667	i	1.3	3.3	1.1	4.8	-0.2	5.3	-1.1%
CC1CCC2(CC1)NC(=O)N(CC(=O)Nc1nc(-c3ccc(F)cc3)cs1)C2=O (stereo not drawn)	0.78	x	7.7	-1.5	x	x	x	x	-13.0%&-8.5%
O=C(Nc1cccc([N+](=O)[O-])c1)c1ccc2nc(N3C(=O)CCC3=O)sc2c1	0.74	x	1.1	65.8	x	x	x	x	-2.1%
Cn1cnc(S(=O)(=O)N[C@H]2C=C[C@@H](CC(=O)NCC3CCCCC3)O[C@@H]2CO)c1	x	i	x	x	3.5	0.2	-1.0	0.4	x
O=C(C[C@@H]1CC[C@@H]2[C@H](COC[C@@H](O)CN2S(=O)(=O)c2cccc(Cl)c2)O1)Nc1ccccc1	x	i	x	x	-12.1	-18.1	-0.5	0.4	x
CN1OC[C@@H]2CN(Cc3ccccc3)[C@H](c3cccc(N4CCOCC4)c3)C[C@@H]21	x	i	3.3	x	7.8	1.5	-1.9	2.4	-1.9%
Cc1ccccc1C1c2[nH]c3ccccc3c2C[C@H]2C(=O)N(c3ccccc3C(=O)NCCCN3CCOCC3)C(=O)N12 (stereo partly drawn)	0.75	i	4.6	-8.3	9.2	-8.1	0.5	9.4	x
CNC[C@H]1Oc2ccc(NS(=O)(=O)c3ccc(F)cc3)cc2CC(=O)N([C@@H](C)CO)C[C@H]1C	x	i	x	x	2.5	11.6	-0.1	-13.8	x
Cc1cccc(-c2nnc(SCC(=O)N3c4ccccc4CCc4ccccc43)n2C)c1	0.715	i	1.1	x	-34.8	-39.5	-2.2	3.3	21.7%
C[C@H](CO)N1C[C@H](C)[C@H](CN(C)S(=O)(=O)c2ccccc2)Oc2ccc(NS(=O)(=O)c3cn(C)cn3)cc2CC1=O	x	i	x	x	1.9	-3.8	-0.2	-1.6	x
O=C(C[C@H]1CC[C@H]2[C@@H](COC[C@@H](O)CN2Cc2ccncc2)O1)NCC1CC1	x	i	x	x	-0.5	-0.9	-4.2	-0.9	x
COc1ccc(-c2nc(CS(=O)CC(=O)N3CCOCC3)c(C)o2)cc1OC (stereo not drawn)	0.624	i	-2.6	99.5*	3.3	1.3	-1.1	-2.0	x
C[C@@H]1CN([C@H](C)CO)S(=O)(=O)c2ccc(-c3cccc(C#N)c3)cc2O[C@H]1CN(C)C(=O)c1ccc(F)cc1	x	i	x	x	-9.6	-11.3	-1.8	2.1	x
Nc1nonc1-n1nnc(C(=O)N/N=C/c2ccc(OCc3ccccc3F)cc2)c1CN1CCCCC1	x	i	-8.9	-16.4	1.2	8.2	-0.4	-0.2	4.3%
Cc1cc(C)cc(NC(=O)c2cc(=O)c3ccccc3o2)c1	0.721	x	1.0	-7.6	17.2	19.4	-0.9	-3.4	x
COCC(=O)N1CCCCN2[C@H](CO)[C@H](c3ccc(C#Cc4ccc(OC)cc4)cc3)[C@@H]2C1	x	i	x	x	4.8	-24.4	4.2	-6.9	x
Cc1ccc(S(=O)(=O)N2CCN(C(=O)COC(=O)Cc3cccc(C(F)(F)F)c3)CC2)c(C)c1	0.716	i	0.7	-19.7	0.8	-2.5	-0.2	-5.3	-0.5%
COCC#Cc1cnc2c(c1)C(=O)N([C@H](C)CO)C[C@@H](C)[C@@H](CN(C)C(=O)Nc1ccccc1F)O2	x	i	x	x	3.0	4.0	-2.2	-4.0	x
Nc1cc(=O)[nH]c(SCC(=O)N2CCC(Cc3ccccc3)CC2)n1	0.685	i	0.3	-2.6	8.4	1.7	4.3	1.3	-2.6%
COc1ccc(C(=O)N=C2CCC(C#N)=C3c4cc(OC)c(OC)cc4CCN23)cc1	0.666	x	-0.7	-1.6	x	x	x	x	-6.2%
COCCN(C(=S)Nc1ccccc1C)C(C)c1cccnc1 (stereo not drawn)	0.716	x	0.2	28.7	x	x	x	x	x
OCC(Cc1ccc2c(c1)OCO2)C(CO)Cc1ccc2c(c1)OCO2 (stereo not drawn)	0.759	i	2.5	-19.0	x	x	x	4.6	x
COc1ccc(C(=O)Nc2nc3c(s2)Cc2cc(OC)ccc2-3)cc1	0.72	x	2.2	-7.2	x	x	x	x	2.5%
Cc1cc(C(=O)NNC(=O)CCCCC(=O)NNC(=O)c2cc(C)[nH]n2)n[nH]1	0.73	i	0.9	-13.1	21.9	19.8	-7.8	0.8	x
C[C@@H]1CCCCO[C@H](CN(C)C(=O)Nc2ccc(C(F)(F)F)cc2)[C@@H](C)CN([C@@H](C)CO)C(=O)c2cc(NS(=O)(=O)c3cccs3)ccc2O1	x	i	x	x	0.4	1.3	0.8	2.5	x
COc1cccc(C=Nc2ccccc2C#N)c1O	0.678	i	0.6	x	5.7	6.8	1.4	-1.2	14.7%

Limited to Ecoli growth, Vif A3G and HNF4A DNA FP, for some of the entries so far:
| Molecule | Ecoli growth | Vif A3G | HNF4A DNA FP |
| --- | --- | --- | --- |
| C=CCNC(=O)c1ccc(-c2nc3ccccc3nc2-c2ccccc2)cc1 | 0.712 | x | -0.2 |
| CC(=O)OC1CC[C@@]2(C)C(CCC3C2CC(=O)[C@@]2(C)C3CC3CC(C)=CC(=O)C32)C1 (stereo partly drawn) | 0.667 | -1.1% | 1.3 |
| CC1CCC2(CC1)NC(=O)N(CC(=O)Nc1nc(-c3ccc(F)cc3)cs1)C2=O (stereo not drawn) | 0.78 | -13.0%&-8.5% | 7.7 |

Next section
SMILES	Ecoli growth	FGF22 binding	HNF4A DNA FP	ALR inh	rRNA inh HTS	rRNA inh HTS OD600	rRNA inh HTS RFP	AF4-AF9 inh	Vif A3G
CC(C)(CNC(=O)c1ccccc1NS(C)(=O)=O)N1CCCCC1	0.657	i	3.1	x	5.1	13.6	0.4	-2.9	x
COc1ccc(S(=O)(=O)N2CCCC(c3cc(C(=O)NCc4cccnc4)no3)C2)cc1 (stereo not drawn)	x	i	-1.4	x	2.7	-1.0	-0.8	-2.3	x
N/C(=N/OC(=O)c1ccccc1Cl)c1ncc([N+](=O)[O-])s1	x	i	0.1	-15.7	-8.0	7.7	4.0	5.1	-6.6%
C[C@@H]1CN([C@H](C)CO)C(=O)c2cc(C#CCc3ccccc3)cnc2O[C@H]1CN(C)C(=O)C1CCCCC1	x	i	x	x	-8.4	-21.1	4.5	0.4	x
O=C(N[C@@H]1CC[C@@H](CCNC(=O)C2CCOCC2)O[C@@H]1CO)c1ccncc1	x	i	6.5	x	2.3&10.6	0.3&9.9	-1.9&5.0	-0.1&-0.7	x
COc1ccccc1N1CCN(c2ccc3c(c2)S(=O)(=O)c2cccc(C(=O)NCc4cccc(F)c4)c2C3=O)CC1	x	i	14.4	x	1.9	7.4	-0.9	-2.7	3.5%
Cc1ccccc1-c1cnc2c(c1)C(=O)N([C@@H](C)CO)C[C@@H](C)[C@H](CN(C)Cc1ccccc1F)O2	x	i	1.3	x	-0.5&-19.9	-16.4&-66.0	-0.5&29.3	4.3&2.7&9.7	0.8%
Cc1cccc(C)c1-n1nnnc1C(c1ccnc2ccccc12)N(CCN(C)C)Cc1ccccc1 (stereo not drawn)	x	i	5.4	x	-27.1	-41.0	-2.8	4.9	x
C[C@H](NC(=O)N1CCn2c1nc1ccccc12)C(=O)N1CCCCC1	0.675	i	-0.5	-1.5	4.0	3.6	0.1	-0.6	x
Cc1ccc(C#N)c(SCc2nnc(-c3ccc(Cl)cc3)o2)n1	0.682	x	-0.9	-19.8	x	x	x	x	12.2%
C[C@H](CO)N1C[C@H](C)[C@H](CN(C)Cc2ccc(-c3ccccc3)cc2)Oc2ccc(NC(=O)Nc3cccc4ccccc34)cc2C1=O	x	i	x	x	-1.3	3.9	5.7	2.8	x
